Bst PK mod: Pyruvate Kinase. partly purified Bacillus stearothermophilus pyruvate kinase, luminescence ATP production; ribose 5-phosphate activator present at AC10. Potency, µM. actives 1.2% (n = 51,000); in the data active means potency below about 11 µM; inconclusive means mostly about 12 µM to 25 µM; inactive means weaker than that;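 the screen sought inhibitors and activators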;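 also: potency is read from the fitted curve at half-maximal effect; scaled between full activation by ribose 5 phosphate and full inhibition by luteolin; about four in five hits inhibit and the cells do not say which; series up to 57 µM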
TsaE inh: qHTS Assay for Inhibitors of YjeE | actives 0.05% (n = 71,000) | purified YjeE, fluorescence polarisation of a bound ADP probe | tRNA threonylcarbamoyladenosine biosynthesis protein TsaE (Escherichia coli (strain … | Potency, µM; active = well fitted falling curve; inconclusive = weaker or top-dose-only fall, or a rising curve; inactive = flat or poorly fitted curve;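 also: top concentration of the series not given in the record; excess ADP was the control for the full effect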
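Purified YjeE (10 uM) with BODIPY Texas Red-labeled ADP probe (2 uM); compounds pin-transferred, 15 min at room temperature. Binding inhibition read as decreased fluorescence polarization; ADP titration as control.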
Numbers without * were called inactive; i = inactive; . = no result given.

SMILES	Bst PK mod	TsaE inh
CC(=O)c1cccc(NC(=O)c2c(F)c(F)c(F)c(F)c2F)c1	.	i
Cc1cc(Oc2ccc(Cl)cc2)nc(-c2ccccc2O)n1	>57	i
O=C(CN(CC1CCCO1)S(=O)(=O)c1ccc(S(=O)(=O)NC2CC2)cc1)Nc1ccccc1 (stereo not drawn)	>57	i
O=C1CN(c2ccc(Br)cc2)C(=O)N1CC(=O)N1CCCc2ccccc21	>57	i
CC1Cc2cc(/C(O)=C3/C(=O)C(=O)N(CCN4CCOCC4)C3c3cccc(Cl)c3)ccc2O1 (stereo not drawn)	>57	i
O=C(O)c1c(-c2nccc3ccccc23)[nH]c(-c2ccccc2)c1S(=O)(=O)O	.	i
CNC(=O)c1cc2c(s1)CCCCCC2	>57	i
CCOC(=O)c1ccc(NC(=O)CCc2c(C)nc3ncnn3c2C)cc1	>57	i
CCCc1nnc(NC(=O)CN2C(=O)C3C4C=CC(C4)C3C2=O)s1 (stereo not drawn)	>57	i
CCOC(=O)C1CCN(C(=O)COc2ccc(S(=O)(=O)NC(C)C)cc2Cl)CC1	>57	i
CC1CC(C)CN(CCCNC(=O)c2ccc(CS(=O)(=O)Cc3ccccc3F)o2)C1 (stereo not drawn)	>57	i
COCCCN1CN(S(=O)(=O)c2ccc(Cl)cc2)c2nc3ccccc3nc21	i	i
C=CCN(C(=O)Cn1nnc2ccccc21)C(C(=O)NCCOC)c1ccc(OC)cc1OC (stereo not drawn)	>57	i
CCCCn1c(SCC(=O)O)nc2ccccc21	>57	i
O=C1c2ccccc2C(O)N1Cc1ccccc1 (stereo not drawn)	>57	i
CCOc1ccc(-c2cc(CCCC(=O)NCCCOC)no2)cc1	.	i
Cc1ccccc1NCN1C(=O)C2C3C=CC(C3)C2C1=O (stereo not drawn)	.	i
COc1ccc(CCN(Cc2nc3ccccc3c(=O)[nH]2)C(=O)c2ccco2)cc1	>57	i
CN(CC(=O)N1CC=C(c2ccccc2)CC1)S(=O)(=O)c1ccc2c(c1)c(=O)n(C)c(=O)n2C	.	i
CC(=O)c1c(C)n(-c2ccccc2)c2ccc(OCC(O)CN3CCOCC3)cc12 (stereo not drawn)	>57	i
Cc1cc2cc(CN3C(=O)c4ccccc4C3=O)ccc2[nH]1	>57	i
COC(=O)c1cc(NC(=O)CCc2c(C)nc3ncnn3c2C)cc(C(=O)OC)c1	>57	i
CCOC(=O)c1ccccc1NC(=O)c1cc(S(=O)(=O)N2CCOCC2)ccc1F	>57	i
Cc1cc(C(F)(F)F)nc(Nc2nc(C)c3ccccc3n2)n1	>57	i
CC(C)CC(NC(=O)C(CC(C)C)NC(=O)OC(C)(C)C)C(=O)O (stereo not drawn)	>57	i
Other structures.
SMILES	Bst PK mod	TsaE inh
CC1Cc2ccccc2N1S(=O)(=O)c1cnc[nH]1 (stereo not drawn)	>57	i
O=C(c1cc(-c2ccc(Cl)cc2Cl)on1)N1CCOCC1	6.29*	i
C=C(C)C(=O)OCC(C)C	.	i
CC(=O)c1cccc(NC(=O)Nc2ccc(C(=O)N3CCOCC3)cc2)c1	.	i
NC(=O)C1(N2CCCCC2)CCN(C(=O)c2ccccc2)CC1	.	i
O=C(Nc1ccc(N2CCN(C(=O)c3ccccc3)CC2)cc1)c1ccc(Br)o1	>57	i
CCCNS(=O)(=O)c1ccc(C(=O)NCC2CCCO2)cc1 (stereo not drawn)	>57	i
COc1ccccc1CNc1nc2ccccc2n1CCN1CCCCC1	>57	i
COc1cccc(C2NC(=O)NC(C)=C2C(=O)Nc2ccc(C)cc2)c1OC (stereo not drawn)	.	i
Cc1cc(O)c(C2(C(F)(F)F)NCCNC2=O)cc1C (stereo not drawn)	>57	i
CCC(=O)N1CCc2cc(S(=O)(=O)NCCC(=O)N3CC=C(c4ccccc4)CC3)ccc21	>57	i
O=c1cc(CO)oc(CN2CCN(c3ccccc3F)CC2)c1O	>57	i
COc1ccc(CCNC(=O)CN(c2ccccc2OC)S(C)(=O)=O)cc1	>57	i
COCCn1c(=O)c(-c2ccc(Cl)cc2)nc2cnc(OCc3ccccc3)nc21	.	i
COc1cccc(Cn2cccc(NC(=O)NC3CCCCC3)c2=O)c1	>57	i
O=C(O)c1ccc(/C=N\N=C2c3ccccc3-c3ccccc32)cc1	.	i
COc1ccc(Oc2ncc3ncc(=O)n(C)c3n2)cc1	.	i
Cc1cccc(C)c1OCC(O)CNS(=O)(=O)c1ccccc1C(=O)N1CCCCC1 (stereo not drawn)	>25.6	.
CCCN1CCN(c2ncnc3c2nnn3Cc2ccccc2)CC1	>57	i
CC(C)(C)c1csc(NC(=O)Cn2c(=O)oc3ccccc32)n1	>57	i
COc1ccc(S(=O)(=O)Nc2ccc3c(c2)OCO3)cc1Cl	>57	i
O/N=C1\CC(O)Cc2nonc21 (stereo not drawn)	>57	i
CN(Cc1ccccc1)S(=O)(=O)c1ccc(C(=O)Nc2nnc(C3CC3)o2)cc1	>57	i
Cc1ccc(-c2nc3cccnc3s2)cc1NC(=O)c1ccco1	>57	i
O=C(c1ccccc1)c1ccc2nc(N3CCN(C(=O)c4ccco4)CC3)c3nncn3c2c1	.	i
(cont.)
SMILES	Bst PK mod	TsaE inh
CC(C)(C)n1nnnc1C(c1cccs1)N(Cc1ccccc1)Cc1ccco1 (stereo not drawn)	>57	i
COc1ccccc1CNc1ccc(N2CCOCC2)c(C(=O)O)c1	>57	i
CCOC(=O)C1CCCN(C(=O)c2cc(-c3ccc(C)cc3)on2)C1 (stereo not drawn)	.	i
Cc1cc(C)cc(NC2=NCC(=O)N2Cc2ccccc2)c1	>57	i
Cc1cc2nn(-c3cccc4ccccc34)nc2cc1N	>57	i
CCOC(=O)c1ccc(NC(=O)CC2COc3ccccc3O2)cc1 (stereo not drawn)	>57	i
N#Cc1c(-c2ccco2)c2c([nH]c1=S)CCCC2	.	i
O=C(c1cc(C(F)(F)F)cc(C(F)(F)F)c1)N1CCC2(CCCN(Cc3ccncc3)C2)CC1	.	i
CCN(CC)C(=O)C1CCC(CNS(=O)(=O)c2cccc3cccnc23)CC1 (stereo not drawn)	.	i
Cc1ccc(-n2ncc3c(=O)n(-c4ccc(C)c(C)c4)c(C)nc32)cc1	>57	i
CCCCSc1nc(N)c(C#N)c(-c2cccs2)c1C#N	>11.4	.
Nc1sccc1C(=O)c1ccccc1	.	i
O=C(CCn1c(=O)sc2ccccc21)Nc1cccnc1	>57	i
O=C(Nc1ccc2c(c1)nc1n2CCN(C2CCCCC2)C1)c1ccco1	>57	i
CCCn1c(C(C)NC(=O)c2ccccc2)nc2ccccc21 (stereo not drawn)	>57	i
Cc1nc(SCC(=O)O)c2oc3ccccc3c2n1	.	i
O=c1c2oc3ccccc3c2ncn1Cc1ccccc1F	>57	i
COc1cc([C@H]2[C@@H]3CCCC[C@]3(O)CCN2CC(=O)Nc2ccc(C)cc2C)ccc1O	>57	i
Cc1cc(C)n(C(=O)CCNC(=O)c2ccccc2Br)n1	>57	i
Cc1ccc2c(COC(=O)C3=COCCO3)cc(=O)oc2c1	.	i
O=C(O)c1cc2nc3c(c(C(F)(F)F)n2n1)CCc1ccccc1-3	.	i
CCCCC(=O)c1c(C)cc(C)[nH]c1=O	>25.6	.
Cn1cc[nH]c1=S	.	i
Cc1ccc(OCc2nnc(SCC(=O)N3CCOCC3)n2C)cc1	>57	i
O=C(CSc1nc2ccccc2o1)c1cc2ccccc2oc1=O	>57	i
Carrying on.
SMILES	Bst PK mod	TsaE inh
CC(C)NC[C@H](O)c1cc(O)cc(O)c1	.	i
Cc1ccc(-c2nn(CC(=O)NCc3ccco3)c(=O)c3ccccc23)cc1	>57	i
NCS(=O)(=O)O	.	i
CCOC(=O)N1CCN(C(=O)c2oc(=O)c3ccccc3c2-c2ccc(C)cc2)CC1	.	i
N#CCCN(C(=O)CSc1ccc2c(c1)OCCO2)c1ccccc1	>57	i
CCN1CCN(C(=O)C2c3cc(OC)c(OC)cc3C(=O)N(C)C2c2ccc(SC)cc2)CC1 (stereo not drawn)	>57	i
O=C(CSc1ccc(Cl)cc1)OCc1nnc(-c2ccccc2)o1	>57	i
CCN1CCN(c2c(Cl)cccc2NC(=O)c2ccc3c(c2)OCCO3)CC1	>57	i
Cc1cc(-c2cccs2)n[nH]1	.	i
CCC1Sc2ccccc2N(CC(=O)NCc2ccc3c(c2)OCO3)C1=O (stereo not drawn)	>57	i
CCCC(=O)Nc1nnc(-c2ccco2)s1	>57	i
Cc1noc(C)c1S(=O)(=O)N(CC(=O)Nc1ccc2c(c1)OCO2)c1ccc(C(C)C)cc1	.	i
O=C(CSc1ncc(C(F)(F)F)cc1Cl)N1CCN(S(=O)(=O)c2ccccc2)CC1	>57	i
CN(c1ccccc1C(=O)Nc1ccccc1C(=O)NCc1ccco1)S(C)(=O)=O	>57	i
CC1CC(C)CN(C(=O)C2CCCN(S(=O)(=O)c3cccc4nonc34)C2)C1 (stereo not drawn)	>57	i
CCNC(=O)C1CC(=O)N(c2ccc(Br)cc2)C1 (stereo not drawn)	>57	i
COc1ccc(CCNC(=O)CN(c2ccc(C)cc2)S(=O)(=O)c2c(C)noc2C)cc1OC	>57	i
Cc1nnc(SCC(=O)NCc2cccs2)n1-c1ccccc1	>57	i
O=C(c1cc(-c2ccc(O)cc2)on1)N1CCc2ccccc2C1	.	i
O=C(NCc1ccc2c(c1)OCO2)c1ccc(CS(=O)(=O)c2cccc(C(F)(F)F)c2)o1	>57	i
CC(C)(CSc1nncn1N)NS(=O)(=O)c1ccc(Cl)cc1	>57	i
COc1ccc(N2CCN(CC(=O)Nc3cc(C)on3)CC2)cc1	>57	i
CCOC(=O)C1=C(C)NC2=C(C(=O)CCC2)C1c1ccsc1 (stereo not drawn)	>57	i
Cc1cc(NC(c2cccnc2)c2c(C)[nH]c3ccccc23)no1 (stereo not drawn)	>57	i
CCc1cccc(C)c1NC(=O)c1ccoc1C	.	i
Going on with the list.
SMILES	Bst PK mod	TsaE inh
O=C(NCCn1ccc2ccccc21)c1ccc(S(=O)(=O)N2CCCCC2)cc1	.	i
O=C(CSC1=NCCS1)Nc1ccnc2ccccc12	>57	i
CCOC(=O)C(C)Sc1nnc(CNC(=O)c2ccc(OC)cc2)n1C1CCCCC1 (stereo not drawn)	>57	i
COc1ccc(CSC2=C(C#N)C(=O)NC3(CCCCC3)S2)cc1	.	i
Clc1cc(Cl)c(Cl)c(Cl)c1Cl	.	i
CCc1cccc(C)c1NC(=O)CSc1nc2ccccc2n1CC(=O)N(C)C	>57	i
Cc1nc2nc(C)c(CCC(=O)N3CCOCC3)c(C)n2n1	>57	i
CC1(C)NC(=O)N(CCCOc2ccc(Br)cc2Cl)C1=O	.	i
Cc1ccc(S(=O)(=O)c2nc(-c3ccc(F)cc3)oc2SCC(=O)NCC2CCCO2)cc1 (stereo not drawn)	>57	i
CC(=O)C[C@H](c1ccc([N+](=O)[O-])cc1)c1c(O)c2ccccc2oc1=O	.	i
O=C(Nc1ccccc1)c1ccc(NCc2ccco2)c(S(=O)(=O)N2CCOCC2)c1	>57	i
COCCn1c(SCC(=O)Nc2ncc(Cl)c(C)c2Cl)nc2ccccc21	>57	i
O=C1c2ccccc2NC(c2ccc3c(c2)OCO3)N1O (stereo not drawn)	>57	i
COc1cc(S(=O)(=O)N2CCOCC2)c(OC)c(S(=O)(=O)N2CCOCC2)c1	>57	i
CCOC(=O)N1CCN(C(=O)c2ccc3nc(N4CCC(C)CC4)sc3c2)CC1	>57	i
O=C(NCCCn1ccnc1)C(F)(F)C(F)(F)C(=O)NCCCn1ccnc1	>57	i
O=c1c2ccccc2nc(SCc2cn3ccsc3n2)n1-c1ccc(F)cc1	>57	i
O=C(c1cccs1)N1CCCc2ccccc21	>57	i
CC1CN(c2oc(Cc3cccc4ccccc34)nc2C#N)CC(C)O1 (stereo not drawn)	>57	i
Cc1cc(C)c(C#N)c(SCC(=O)Nc2ccc(S(=O)(=O)Nc3onc(C)c3C)cc2)n1	.	i
CCCC1CC(c2csc(N)n2)CCO1 (stereo not drawn)	>57	i
CCOc1ccc(NC(=O)CCN2CCN(S(=O)(=O)c3cc(Cl)ccc3OC)CC2)cc1	>57	i
Cn1c(/N=C/c2ccc3c(c2)OCO3)nc2ccccc21	.	i
O=C(c1cccs1)N1CCC(c2nc(-c3ccc(S(=O)(=O)N4CCOCC4)cc3)no2)CC1	>57	i
CC(C)Oc1ccc2nnnn2n1	>57	i

Assay outcomes (PubChem)

An excerpt; count on the stated rates, not on these rows.
